High-throughput results: PubChem BioAssay, National Center for Advancing Translational Sciences (NCATS)
VDR inh: inhibitors of human vitamin D receptor | P11473 | 400,000 tested, 0.93% active | VDR-SRC2-3 peptide fluorescence polarization, 2 h | Potency, µM, for inactives: max response, negative = inhibition, actives largely listed as inhibitors | AID 504847; active = well fitted inhibition curve with a large enough effect; inconclusive = small, poorly fitted or top-dose-only effect, or another doubt; inactive = no such curve, though single readings can be large or run the other way; note: series mostly up to about 120 µM
Target sequence (P11473 whole entry, looked up): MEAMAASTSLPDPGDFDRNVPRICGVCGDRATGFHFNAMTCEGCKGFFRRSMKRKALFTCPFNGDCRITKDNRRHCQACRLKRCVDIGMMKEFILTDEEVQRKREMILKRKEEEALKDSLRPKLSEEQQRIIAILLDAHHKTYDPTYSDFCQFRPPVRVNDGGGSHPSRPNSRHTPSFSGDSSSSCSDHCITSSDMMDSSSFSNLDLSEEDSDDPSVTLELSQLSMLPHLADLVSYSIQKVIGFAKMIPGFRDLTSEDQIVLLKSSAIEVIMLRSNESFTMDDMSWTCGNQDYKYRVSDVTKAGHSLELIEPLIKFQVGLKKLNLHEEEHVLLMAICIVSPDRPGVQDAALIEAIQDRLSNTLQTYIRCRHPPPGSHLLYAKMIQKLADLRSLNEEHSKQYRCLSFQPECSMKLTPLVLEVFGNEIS
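Signal is fluorescence polarization, reporting how far test compounds block the interaction of VDR with the SRC2-3 coregulator peptide after a 2 h room-temperature incubation.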
The depositor's hits bear a star; & = joins results of further samples. % is set by controls: 0 for no effect and ±100 for the full control effect; potency is the fitted concentration of half-maximal effect. An excerpt; the hit share may differ from the screen's.

Screening COc1ccc(Cl)cc1S(=O)(=O)n1c([N+](=O)[O-])cnc1C returned VDR inh -8%.
For CCc1ccc2nc(N(CCN(CC)CC)C(=O)c3cccs3)sc2c1 the results were VDR inh 7%.
For O=C(O)CSc1cccc2cccc(C(=O)O)c12 the results were VDR inh -5%.
O=C(CNC(=O)c1ccccc1)N/N=C/c1ccccc1Cl was read as VDR inh 15%.
For O=C(O)c1ccc(NC2(C(=O)O)CCCC2)cc1 the results were VDR inh 8%.
Screening CSCC[C@H](NC(=O)[C@H](CC(C)C)NC(=O)CNC(=O)[C@H](Cc1ccccc1)NC(=O)[C@H](Cc1ccccc1)NC(=O)[C@H](CCC(N)=O)NC(=O)[C@H](CCC(N)=O)NC(=O)[C@@H]1CCCN1C(=O)[C@H](CCCCN)NC(=O)[C@@H]1CCCN1C(=O)[C@@H](N)CCCN=C(N)N)C(N)=O returned VDR inh -6%.
Screening Cn1c(=O)c2[nH]c(C3CC=CCC3)nc2n(C)c1=O (centres undefined) returned VDR inh 4%.
`CC1(C)Cc2c(C#N)c(N3CCN(C(=O)c4ccccc4)CC3)nc(-c3ccco3)c2CS1` gave VDR inh inconclusive.
`COc1cc(=O)[nH]c(SC(C)C(=O)Nc2cccc3ccccc23)n1` (centres undefined) gave VDR inh -9%.
Screening O=C(NCCc1ccccc1)c1cc2sccc2n1Cc1ccccc1 returned VDR inh inconclusive.
Screening O=S(=O)(Nc1ccccc1)c1ccc(-c2cnc(C3CC3)o2)cc1 returned VDR inh -10%.
`CC1=CCC(C(=O)O)(C(=O)N/N=C/c2cccs2)C(c2ccc(Cl)cc2)C1` (centres undefined) gave VDR inh -7%.
For CCOC(=O)CN1C(=O)N[C@@H](c2cccc(C(F)(F)F)c2)C(C(C)=O)=C1C the results were VDR inh -2%.
Screening COc1cc2c(C(=O)N(C)c3cccc(C(F)(F)F)c3)cn(CC(C)C)c(=O)c2cc1OC returned VDR inh -8%.
Screening Cc1cc(-c2ccccc2)[nH]c(=O)c1C#N returned VDR inh -8%.
Screening O=C(CCn1nnc2ccccc21)Nc1nnc(Cc2ccc(F)cc2)s1 returned VDR inh 7%.
Screening CC1CC(C)CN(CCCNC(=O)CCNC(=O)Cn2ccc3ccccc3c2=O)C1 (centres undefined) returned VDR inh 0%.
`COCCCNC(=O)c1ccc2c(=O)n(C3CCCC3)c(=S)[nH]c2c1` gave VDR inh 10%.
CCOc1ccc2c(c1)OC(c1ccc(OC)cc1)(C(F)(F)F)NC2=O (centres undefined) was read as VDR inh -22%.
For Cc1noc(C)c1COc1cccc(C(=O)OCC(=O)N2CC(=O)Nc3ccccc32)c1 the results were VDR inh 6%.
Screening C[C@H](NC(=O)[C@H](Cc1ccccc1)NC(=O)c1cc2cc(Cl)ccc2n1C)C(=O)O returned VDR inh 2%.
`CSCCC(NC(=O)c1ccccc1Br)C(=O)NCc1ccc(F)cc1` (centres undefined) gave VDR inh 10%.
Cc1cccc(CSC(=N)N)c1 was read as VDR inh -19%.
`Cc1ccc(C(=O)c2ccc([N+](=O)[O-])cc2)cc1C` gave VDR inh 16%.
CCOc1ccc(NC(=O)CSc2ncn[nH]2)c([N+](=O)[O-])c1 was read as VDR inh -9%.
CCOc1ccc(S(=O)(=O)NCCC(=O)NC(C)CCc2ccccc2)cc1 (centres undefined) was read as VDR inh -4%.
`O=C(C1CCCCN1S(=O)(=O)c1ccccc1[N+](=O)[O-])N1CCCCC1` (centres undefined) gave VDR inh -16%.
COc1cccc(C(=O)N2CCN(C(=O)C3CCCO3)CC2)c1 (centres undefined) was read as VDR inh 2%.
`Cc1cccc(S(=O)(=O)Nc2ccc(C)c3c2OC(C)(C)C3)c1` gave VDR inh -1%.
NC(=O)c1ccc(Nc2ccc([N+](=O)[O-])cc2[N+](=O)[O-])cc1 was read as VDR inh -4%.
Screening O=C(NCC1CCCO1)C(C(=O)c1ccc(F)cc1)n1ccccc1=O (centres undefined) returned VDR inh -12%.
Screening O=C(CCCn1c(=O)c2sccc2n(Cc2cccc(Cl)c2)c1=O)NCc1ccc2c(c1)OCO2 returned VDR inh 2%.
`O=C(OCC1CCC=CO1)C1CCC=CO1` (centres undefined) gave VDR inh -2%.
For COc1ccc2[nH]cc(C(O)CN3CCN(c4ccccc4F)CC3)c2c1 (centres undefined) the results were VDR inh 1%.
Screening Cc1ccccc1-n1c(SCC(=O)c2c(N)n(C3CC3)c(=O)[nH]c2=O)nnc1N1CCOCC1 returned VDR inh -1%.
Screening Cc1ccc(S(=O)(=O)N2CCN(C(=S)NCC3CCCO3)CC2)cc1 (centres undefined) returned VDR inh 3%.
Screening COc1ccc(S(=O)(=O)N2CCCC(C(=O)NCCC3=CCCCC3)C2)cc1 (centres undefined) returned VDR inh 6%.
For CCCOC(=O)c1ccc(OCC(O)CN2C(=O)NC(C)(C)C2=O)cc1 (centres undefined) the results were VDR inh 5%.
COc1ccc(S(=O)(=O)N2CC3C4C=CC(C4)C3C2)cc1 (centres undefined) was read as VDR inh -5%.
For Cc1c(NC(=O)C(C)OC(=O)c2sc3ccccc3c2Cl)c(=O)n(-c2ccccc2)n1C (centres undefined) the results were VDR inh -8%.
O=C(NCc1ccccc1Cl)C1CCN(S(=O)(=O)c2ccc(F)cc2)CC1 was read as VDR inh 3%.
`C=CCN1C(=O)C(C)NC1=S` (centres undefined) gave VDR inh 4%.
CCC1(C)Cc2nc3[nH]c(=S)n(-c4ccc(C)cc4)c(=O)c3cc2CO1 (centres undefined) was read as VDR inh -15%.
For CS(=O)(=O)CCNCc1ccc(-c2ccc3ncnc(Nc4ccc(OCc5cccc(F)c5)c(Cl)c4)c3c2)o1 the results were VDR inh -10%.
`CC(C)n1c(NCCO)nc2ccccc21` gave VDR inh 12%.
For Cc1ccc(CNC(=O)CCCc2ccccc2)cc1 the results were VDR inh -10%.
For Cc1cn(CCC(=O)Nc2ccc(N3CCOCC3)cc2)c2ccccc12 the results were VDR inh -6%.
Screening O=C(OCC#CCSc1nnc(-c2cccc3ccccc23)o1)c1ccc(Cl)cc1 returned VDR inh -13%.
O=C(C[C@H]1C/C=C/CC[C@H](Cc2ccc(F)cc2)C(=O)O[C@H](c2ccccc2)CNC1=O)NCCO was read as VDR inh inconclusive.
CCOC(=O)C(Cc1ccnnc1)=NO was read as VDR inh -6%.
`COC(=O)C1CN(C(=O)C(C)Oc2ccccc2F)c2ccccc2O1` (centres undefined) gave VDR inh -7%.
`CCC(=O)c1ccc(Oc2nc3c(c(=O)n(C)c(=O)n3C)n2CC)cc1` gave VDR inh -2%.
CC(=O)c1ccc(NC(=O)Cn2ncc3c(C)n(Cc4ccc(F)cc4)c(C)c3c2=O)cc1 was read as VDR inh 4%.
COc1ccc(-c2nn3c(=O)cc(CN4CCN(C(=O)c5ccc(OC)c(OC)c5)CC4)nc3s2)cc1 was read as VDR inh 11%.
`O=C(CCC1COc2ccccc2O1)NCc1ccco1` (centres undefined) gave VDR inh -6%.
Screening Cc1ccccc1N1C(=O)c2sc3nc4c(c(=O)n3c2C1=O)CCC4 returned VDR inh inconclusive.
For Cc1cc(C)cc(C(=O)Nc2cc3c4c(c2)CC(=O)N4CCC3)c1 the results were VDR inh -3%.
Screening COc1ccccc1P(=O)(c1ccccc1)c1ccccc1NC(C)=O (centres undefined) returned VDR inh -12%.
Screening O=C(Oc1cccc([N+](=O)[O-])c1)C1CCN(C(=O)c2ccc(F)cc2)CC1 returned VDR inh -22%.
For CCC(C)c1ccc(NC(=O)c2cccs2)cc1 (centres undefined) the results were VDR inh 10%.
For O=C(c1cc2cc(Br)ccc2o1)N1CCN(c2ccccc2)CC1 the results were VDR inh 8%.
For O=C(NC1CCN(C(=S)NCc2ccco2)CC1)c1cccc(F)c1 the results were VDR inh -18%.
Screening COc1ccc(NC(=O)CN2C(=O)NC(C)(c3ccccc3)C2=O)cc1Cl (centres undefined) returned VDR inh 19%.
For C=CCn1c(SC)nnc1C1COc2ccccc2O1 (centres undefined) the results were VDR inh 1%.
For COc1ccc(S(=O)(=O)N2CCOCC2)cc1NC(=O)CN1C(=O)NC(C)(C2CC2)C1=O (centres undefined) the results were VDR inh -22%.
O=S1(=O)[C@H]2C[C@@H]3C=C[C@@]2(CN1Cc1cccc(Cl)c1)O3 was read as VDR inh -3%.
CC(=O)Nc1ccc(Nc2nc(C)cc(C)n2)cc1 was read as VDR inh -9%.
For N#CC(=C(O)COC(=O)CCCNC(=O)c1ccc(Cl)cc1)c1nc2ccccc2[nH]1 the results were VDR inh 4%.
COc1ccc(C(NCC(=O)Nc2c(C)cccc2C)c2ccccc2)cc1 (centres undefined) was read as VDR inh inconclusive.
NC(=O)CSc1nc2scc(-c3ccco3)c2c(=O)n1-c1ccccc1 was read as VDR inh 79µM*.

Retrieved by compound from the entries so far:
For O=C(c1cc2cc(Br)ccc2o1)N1CCN(c2ccccc2)CC1 the results were VDR inh 8%.
For C=CCn1c(SC)nnc1C1COc2ccccc2O1 (centres undefined) the results were VDR inh 1%.

Arranged by heavy-atom count (lowest first): some entries from above
For O=C(c1cc2cc(Br)ccc2o1)N1CCN(c2ccccc2)CC1 the results were VDR inh 8%.
NC(=O)CSc1nc2scc(-c3ccco3)c2c(=O)n1-c1ccccc1 was read as VDR inh 79µM*.
For N#CC(=C(O)COC(=O)CCCNC(=O)c1ccc(Cl)cc1)c1nc2ccccc2[nH]1 the results were VDR inh 4%.

Further entries follow:
CCOC(=O)C(C(C)=O)C(c1ccc(OCCC(C)C)cc1)C(C(C)=O)C(=O)OCC (centres undefined) was read as VDR inh -3%.
For O=C(Nc1nc(-c2ccccn2)cs1)c1cc(S(=O)(=O)N2CCOCC2)ccc1F the results were VDR inh 29%.
For O=C(NCc1ccc2c(c1)OCO2)c1cc(-c2ccccc2Cl)on1 the results were VDR inh 11%.
O=C(COc1ccc(Br)cc1)OCC(=O)N1CCOCC1 was read as VDR inh -1%.
`Cc1cccc(C)c1OCc1cc(C(=O)N2CCN(c3ccc(F)cc3)CC2)no1` gave VDR inh 10%.
Screening CN1CCN(S(=O)(=O)c2cccc(C(=O)N3CCN(c4ccccc4F)CC3)c2)CC1 returned VDR inh -2%.
c1csc(Cn2nnnc2CN2CCN(c3nc4ccccc4s3)CC2)c1 was read as VDR inh -10%.
CC(=O)c1cccc(NC(=O)CNC(=O)Cc2cccc3ccccc23)c1 was read as VDR inh 5%.
Screening Cc1cc(NC(=O)CSc2[nH]c(=O)cc(C(F)(F)F)c2C#N)no1 returned VDR inh 8%.
`COCCNC(=O)C(c1ccc(C)o1)N(C(=O)c1snc(C(N)=O)c1N)c1cccc(C)c1` (centres undefined) gave VDR inh 6%.

Grouped by structure: the compounds so far with a cyano group.
`CC1(C)Cc2c(C#N)c(N3CCN(C(=O)c4ccccc4)CC3)nc(-c3ccco3)c2CS1` gave VDR inh inconclusive.
Screening Cc1cc(-c2ccccc2)[nH]c(=O)c1C#N returned VDR inh -8%.
For N#CC(=C(O)COC(=O)CCCNC(=O)c1ccc(Cl)cc1)c1nc2ccccc2[nH]1 the results were VDR inh 4%.
Screening Cc1cc(NC(=O)CSc2[nH]c(=O)cc(C(F)(F)F)c2C#N)no1 returned VDR inh 8%.

(listing goes on)
For COc1ccc(-c2c(C)nn(-c3ccccc3)c2N)cc1OC the results were VDR inh -1%.
For CCCC(=O)Nc1nn(CC(C)C)c2nc3cc(C)ccc3cc12 the results were VDR inh 17%.
`CC(NCc1cccs1)C(=O)Nc1cc(Cl)cc(Cl)c1` (centres undefined) gave VDR inh 21%.
For CCCN(C(=O)c1cn(CC)c2nc(C)ccc2c1=O)c1c(N)n(Cc2ccccc2)c(=O)[nH]c1=O the results were VDR inh -6%.
For CCCCOc1ncnc2c1[nH]c1ccc(C)cc12 the results were VDR inh -7%.
For NC1=C([N+](=O)[O-])C(c2ccccc2)C2=C(CCCC2=O)O1 (centres undefined) the results were VDR inh 2%.
Screening CC(=O)NCc1ccc(-c2csc(N)n2)s1 returned VDR inh 8%.
Screening CN(C(=O)CSC1=NCCS1)c1ccccc1 returned VDR inh -1%.
Screening CN(Cc1ccccc1)c1ncnc2ccc(Br)cc12 returned VDR inh -17%.
NC(=O)c1sc2nc3c(c(-c4ccco4)c2c1N)CCCC3 was read as VDR inh 7%.
Screening COc1ccccc1[C@H]1C(c2cccc(C)c2)=NN(c2ccccc2)[C@@H]1CO returned VDR inh -21%&-5%.
C=CCn1c(CSc2nc3ccccc3s2)nnc1SCC(=O)NCCN1CCOCC1 was read as VDR inh -12%.
`Cc1ccc(C(=O)N/N=C/c2cccc3ccccc23)cn1` gave VDR inh 13%.
C[C@@H](NC(=O)[C@@H]1Cc2ccccc2CN1)C(=O)NC1CCCC1 was read as VDR inh 12%.
For COc1ccc(Cl)cc1C(=O)NCCN(C)C the results were VDR inh 14%.
